Screening results: PubChem, Southern Research Institute
Mtb growth: Mycobacterium tuberculosis H37Rv growth inhibition, putative kinase inhibitor library, confirmatory dose response (AID 2842); M. tuberculosis H37Rv growth inhibition; higher % means a stronger effect; some inactives read as strong as hits; inhibition, % at 10 µg/mL, or IC90 in µg/mL where a hit was titrated; hit rate 5.2% among 24,000;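 active = confirmed in a dose series; about a fifth of its hits are not listed in these tables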;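 note: bacteria incubated one week before Alamar blue readout; 0% = bacteria only wells and 100% = bacteria with high antibiotic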
Active calls of the source: *. An excerpt. The share of hits here may be higher or lower than overall.

SMILES	Mtb growth
Cc1ccc(-n2c(SCC(=O)NC3CCCCC3)nc3c(c2=O)SCC3)cc1	9%
COc1ccc(OCCn2c(C(C)(C)O)nc3ccccc32)cc1	9%
O=C(CCCc1nnc2c(=O)n(-c3ccc(Cl)cc3)ccn12)NCc1ccc(F)cc1	-3%
CSc1ccccc1NS(=O)(=O)c1cc2c3c(c1)CCN3C(=O)CC2	-8%
COc1ccc2nc(Nc3ccccc3OC)sc2c1	12%
Cc1nnc(SCc2c(F)cccc2Cl)n(N)c1=O	1%
O=C(Nc1cccc(-c2ccc(N3CCOCC3)nn2)c1)c1cccc(Cl)c1	-1%
CCCCC(=O)Nc1nnc(-c2ccc(Br)cc2)o1	2.3µg/mL*
O=C(O)CCC(=O)Nc1ccc(Cl)cc1-c1nc2ccccc2[nH]c1=O	-10%
O=C(CSc1ccc2nnc(-c3cccc(F)c3)n2n1)NCc1ccccc1Cl	19%
COc1ccccc1NC(=O)COc1ccc2c3c(c(=O)oc2c1)CCC3	-1%
O=C(CSc1ncnc2c1oc1ccccc12)NCc1ccco1	6%
Cc1ccc(C)c(-c2nnc(NC(=O)c3ccc(Cl)cc3Cl)o2)c1	2.2µg/mL*
CC1=C(C(=O)Nc2ccccc2C)C(c2cccc(Cl)c2)NC(=O)N1 (stereo not drawn)	-8%
COc1cccc(NC(=O)c2cnc(SCC(=O)NCc3ccc4c(c3)OCO4)n(C)c2=O)c1	7%
Cc1ccc(C(=O)Nc2sc3c(c2C(N)=O)CCC(C)C3)c(C)c1 (stereo not drawn)	5%
C=CCn1c(=O)c2c(nc3n(-c4cc(C)cc(C)c4)c(C)cn23)n(C)c1=O	7%
O=C(Cn1cnc2c(nnn2-c2cccc(F)c2)c1=O)NCc1ccco1	10%
O=C(COc1ccc(Cl)cc1Cl)NCC(=O)N/N=C/c1c[nH]c2ccccc12	2%
Cc1ccc(N2CCN(C(=O)c3cc4cc([N+](=O)[O-])ccc4oc3=O)CC2)cc1C	-2%
Cc1cc(C)cc(C(=O)NCCc2cc3ccc(C)cc3[nH]c2=O)c1	67%
Cc1ccc(-n2c(SCC(=O)Nc3ccccc3C(F)(F)F)nc3c(c2=O)SCC3)cc1	0%
O=C(CSc1nc2c([nH]c3ccccc32)c(=O)n1-c1ccccc1F)NC1CCCC1	8%
Cc1nc2ccc(NC(=O)c3ccc(C#N)cc3)cc2s1	-2%
CC(C)OC(=O)c1cccc(NC(=O)Cn2nnc3sc4c(c3c2=O)CCC(C(C)(C)C)C4)c1 (stereo not drawn)	-3%
CC(C)n1c(N=Nc2c(O)[nH]c3ccccc23)nc2c1c(=O)[nH]c(=O)n2C	11%
CCC(CC)C(=O)Nc1cc(=O)n(C)c(=O)n1C	0%
CN(C(=O)c1cccc(C(F)(F)F)c1)c1nnc(C23CC4CC(CC(C4)C2)C3)s1	57%
COc1ccc(-c2nnc3ccc(SCC(=O)Nc4nc5ccc(C)cc5s4)nn23)cc1	1%
O=C(N=Nc1c(O)[nH]c2ccccc12)c1cc(-c2cccc(OCc3ccccc3)c2)n[nH]1	20µg/mL*
CCS(=O)(=O)Nc1cccc(C(=O)CC2(O)C(=O)Nc3ccc(Br)cc32)c1 (stereo not drawn)	2%
CCOC(=O)c1nn(-c2ccc(C)cc2)c(=O)c2c(NC(=O)CCc3ccccc3)scc12	5%
CCOC(=O)c1ccc(NC(=O)CSc2nc3c(cnn3-c3ccc(S(N)(=O)=O)cc3)c(=O)[nH]2)cc1	48%
CCOC(=O)Cc1c(-c2ccccc2)c2cc(Cl)ccc2[nH]c1=O	0%
O=C(CC1CCS(=O)(=O)C1)Nc1nncs1 (stereo not drawn)	3%
COC(=O)Cn1c(=NC(=O)c2ccccc2C)sc2cc(S(C)(=O)=O)ccc21	-2%
CCn1c(=NC(=O)c2ccc(N(C)C)cc2)sc2cc(C(=O)OC)ccc21	-2%
O=C(NCCCN1CCCC1=O)C(=O)Nc1cc2c3c(c1)CCC(=O)N3CCC2	1%
O=C(Nc1nccs1)c1cc2c(=O)n3ccccc3nc2s1	-1%
CCCCc1ccc(NC(=O)CSc2nc3c([nH]c4ccccc43)c(=O)n2-c2ccccc2)cc1	35%
COc1ccc(CN2CC3=C(C2=O)C(c2ccc(F)cc2)NC(=O)N3)cc1 (stereo not drawn)	-14%
COc1ccc2nc(N=Nc3c(C)[nH]n(-c4ccccc4)c3=O)sc2c1	7.7µg/mL*
O=[N+]([O-])c1ccc(S(=O)(=O)N2CCN=C2SCc2cccnc2)cc1	-12%
CC(C)(C)OC(=O)NCCC(=O)Oc1cc2oc(=O)c3c(c2cc1Cl)CCC3	-33%
O=C(CC1Nc2ccccc2NC1=O)Nc1cccc([N+](=O)[O-])c1 (stereo not drawn)	0%
Cc1ccc(C)c(-c2nnc(NC(=O)c3ccccc3)o2)c1	25µg/mL*
COC(=O)c1c(NC(=O)CC2Nc3ccccc3NC2=O)sc(C)c1C (stereo not drawn)	6%
COc1cc2ccccc2cc1C(=O)Nc1sc2c(c1C(N)=O)CCN(C(C)=O)C2	36%
O=C(Cc1ccc(-c2ccccc2)cc1)Nc1ccc2c(c1)CCC(=O)N2	4%
O=C(CN1C(=O)c2ccccc2C1=O)Nc1nnc(C2COc3ccccc3O2)o1 (stereo not drawn)	-11%
COc1ccc(OC)c(NC(=O)c2oc3ccccc3c2NC(=O)C2CCCCC2)c1	-10%
COc1ccc2nc(NC(=O)c3ccc4ncsc4c3)sc2c1	7%
Cc1ccc(C)c(Nc2nc(NCCN3CCOCC3)nc3nccnc23)c1	7%
COc1cc(/C=C2\SC(=S)N(c3ccc(O)cc3)C2=O)cc(OC)c1OC	5%
O=C(CSc1nc2[nH]ncc2c(=O)[nH]1)c1ccc(Cl)cc1	4%
CC1CCc2sc(NC(=O)Cc3ccccc3)c(C(N)=O)c2C1 (stereo not drawn)	10%
CCOC(=O)c1nn(-c2ccccc2)c(=O)c2c(NC(=O)COC)scc12	-1%
CCOC(=O)N1CCN(C(c2ccc(F)cc2)c2sc3ncnn3c2O)CC1 (stereo not drawn)	1%
COc1ccc(NC(=S)NCCc2cc3c(OC)ccc(OC)c3[nH]c2=O)cc1OC	1%
CCSc1nnc(Cn2c(=O)sc3ccccc32)n1C	19%
(list continues)
SMILES	Mtb growth
Cc1ccc(CSc2cc(C)[nH]c(=O)n2)cc1	3%
COc1ccc(C)cc1NC(=O)CSc1nnc(C)c(=O)n1N	-14%
COc1ccc(Cl)c2c(=O)c(CN3CCOCC3)c(C)[nH]c12	-3%
Cc1ccc(-n2c(SCc3cccc(C)c3)nc3c([nH]c4ccccc43)c2=O)cc1	-2%
CCOc1ccc(NC(=S)NCCc2cc3ccc(C)cc3[nH]c2=O)cc1	70%
CCN1CCc2c(sc(NC(=O)c3nc4ccccc4s3)c2C(N)=O)C1	72%
Cn1c(=O)c2c(SCC(=O)Nc3ccc(C(F)(F)F)cc3)nc(-c3ccc(F)cc3)nc2n(C)c1=O	-6%
Cn1c(=O)[nH]c(=O)c2c1nc1n2CC(COc2ccc3ccccc3c2)O1 (stereo not drawn)	-3%
O=C(CCS(=O)(=O)c1ccc(F)cc1)Nc1nnc(-c2ccccc2Cl)o1	1%
CCOc1ccccc1NC(=O)c1oc2ccccc2c1NC(=O)c1ccc2c(c1)OCO2	1%
COc1ccc(-n2nnc3c(SCC(=O)Nc4ccc5c(c4)OCO5)ncnc32)cc1	-5%
Cc1ccc(S(=O)(=O)C(CNS(=O)(=O)c2ccc3c(c2)OCCO3)c2ccco2)cc1 (stereo not drawn)	-6%

15 compounds out of the list, sorted by heavy-atom count, ascending:
SMILES	Mtb growth
O=C(CC1CCS(=O)(=O)C1)Nc1nncs1 (stereo not drawn)	3%
CCSc1nnc(Cn2c(=O)sc3ccccc32)n1C	19%
O=C(CSc1nc2[nH]ncc2c(=O)[nH]1)c1ccc(Cl)cc1	4%
COc1ccc2nc(NC(=O)c3ccc4ncsc4c3)sc2c1	7%
Cc1ccc(C(=O)Nc2sc3c(c2C(N)=O)CCC(C)C3)c(C)c1 (stereo not drawn)	5%
CC1=C(C(=O)Nc2ccccc2C)C(c2cccc(Cl)c2)NC(=O)N1 (stereo not drawn)	-8%
CCOc1ccc(NC(=S)NCCc2cc3ccc(C)cc3[nH]c2=O)cc1	70%
Cc1ccc(C)c(Nc2nc(NCCN3CCOCC3)nc3nccnc23)c1	7%
O=C(CSc1ccc2nnc(-c3cccc(F)c3)n2n1)NCc1ccccc1Cl	19%
COc1cc2ccccc2cc1C(=O)Nc1sc2c(c1C(N)=O)CCN(C(C)=O)C2	36%
O=C(CSc1nc2c([nH]c3ccccc32)c(=O)n1-c1ccccc1F)NC1CCCC1	8%
Cc1ccc(-n2c(SCC(=O)Nc3ccccc3C(F)(F)F)nc3c(c2=O)SCC3)cc1	0%
CCOc1ccccc1NC(=O)c1oc2ccccc2c1NC(=O)c1ccc2c(c1)OCO2	1%
CC(C)OC(=O)c1cccc(NC(=O)Cn2nnc3sc4c(c3c2=O)CCC(C(C)(C)C)C4)c1 (stereo not drawn)	-3%
Cn1c(=O)c2c(SCC(=O)Nc3ccc(C(F)(F)F)cc3)nc(-c3ccc(F)cc3)nc2n(C)c1=O	-6%

Further results follow.
SMILES	Mtb growth
CCn1c(SCC(=O)Nc2nc(C)cs2)nnc1-c1c[nH]c2ccccc12	-8%
CC(=O)C(C(=O)N(C)C)n1cnc2c(nnn2-c2ccc(Cl)cc2)c1=O (stereo not drawn)	0%
Cc1cc2c(c(=O)n1CCO)C(c1ccccc1Br)C(C#N)=C(N)O2 (stereo not drawn)	-19%
CCN(CC)S(=O)(=O)c1ccc2c3c(cccc13)C(=O)N2	13%
CCOC(=O)N1CCc2c(sc(NC(=O)C3COc4ccccc4O3)c2C(N)=O)C1 (stereo not drawn)	8.2µg/mL*
COCCn1c(SCc2ccc(Cl)cc2)nc2c1c(=O)[nH]c(=O)n2C	4%
NC(=O)CSc1nc2scc(-c3ccccc3Cl)c2c(=O)n1-c1ccccc1	41%
CCS(=O)(=O)c1ccc(CC(=O)Nc2nc3ccc4sc(C)nc4c3s2)cc1	-8%
COc1cc(NC(=O)CSc2nccn(-c3ccc(Cl)cc3)c2=O)cc(OC)c1	-6%
CCC(Sc1ccc(C)cc1)C(=O)Nc1nnc(C(C)C)s1 (stereo not drawn)	20%
Cc1ccc(S(=O)(=O)/N=C(\[O-])C[n+]2ccccc2)cc1	-2%
O=C(CS[n+]1ccccc1)c1ccc(Br)cc1	-11%
Cc1ccc2c(c1)c(=O)c(C(=O)c1ccc(F)cc1)cn2Cc1cccc(F)c1	1%
Cc1ccc(C)c(Nc2nc(Nc3cccc(F)c3)nc3nccnc23)c1	-2%
COc1ccc2nc(-c3ccc(OC)c(NS(=O)(=O)c4cc(F)ccc4F)c3)cn2n1	8%
CCOC(=O)c1nn(-c2ccc(C)cc2)c(=O)c2c(NC(=O)c3c(F)cccc3F)scc12	-4%
O=C(CCS(=O)(=O)c1ccccc1)Nc1nnc(-c2cccnc2)o1	-4%
Cc1cccc(-n2nnc3c(=O)n(CC(=O)c4ccccc4)cnc32)c1	-19%
COc1ccc(C(=O)NCc2ccc3c4c(cccc24)C(=O)N3)cc1OC	1%
CCOC(=O)c1nn(-c2ccc(C(C)C)cc2)c(=O)c2c(NC(=O)c3ccc(S(=O)(=O)N4CCCCC4)cc3)scc12	6%
CC(C)(C)C(=O)Nc1c(C(=O)Nc2ccc(OC(F)(F)F)cc2)oc2ccccc12	-4%
COc1ccc2cc(CCNC(=O)c3ccc(Br)o3)c(=O)[nH]c2c1	6%
Cc1ccc2nc(-c3ccc(OCC(=O)NCCO)cc3)cc(-c3ccccc3)c2c1	15%
Cc1cccc(OCC(=O)Oc2coc(CSc3ncccn3)cc2=O)c1	-11%
COc1ccc2nc(Nc3nnc(-c4ccc(Cl)cc4)o3)sc2c1	3%
CCC(C)NC(=O)c1cc2cc(OC)ccc2oc1=O (stereo not drawn)	6%
NC(=O)c1ccc(NC(=O)CSc2nnc3[nH]c(=O)ccn23)cc1	-15%
CCC(CC)C(=O)Nc1nnc(-c2ccc(Cl)cc2Cl)s1	14%
COc1ccc(Cl)cc1NC(=O)CSC1=NS(=O)(=O)c2cc(F)ccc2N1	1%
COc1ccc(NC(=O)c2cnc(SCc3cccnc3)n(C)c2=O)cc1	7%
Cc1ccc2nc(NC(=O)CSc3ncnc4c3cnn4-c3ccc(Cl)cc3)sc2c1	28%
Cc1ccc(C(CNC(=O)Nc2cccc(C)c2)N2CCN(C)CC2)cc1 (stereo not drawn)	-8%
CS(=O)(=O)c1ccccc1-c1nnc(NC(=O)c2ccccc2Br)o1	-11%
CC(=O)N1CCc2c(sc(NC(=O)c3cc(=O)c4ccccc4o3)c2C(N)=O)C1	-5%
CCOC(=O)c1ccc(NC(=O)CSC2=C(C#N)C(c3ccc(OC)c(OC)c3)CC(=O)N2)cc1 (stereo not drawn)	13%
Cc1cccc(C(c2sc3nc(C)nn3c2O)N2CCN(C(=O)c3ccco3)CC2)c1 (stereo not drawn)	-8%
O=C(CSc1ncnc2ccccc12)Nc1ccc2c(c1)OCCO2	3%
CCOc1ccc(-n2c(CSc3nc(C)cc(C)n3)nnc2SCC)cc1	11%
Cc1[nH]c2ccc(N3CCOCC3)cc2c(=O)c1CN1CCCC1	4%
COc1ccc(NC(=O)CSc2nc3c(c(=O)n2C)SC(C)C3)c(OC)c1 (stereo not drawn)	0%
CCOc1cc(C(=O)Nc2nnc(-c3ccccc3Cl)s2)cc(OCC)c1OCC	5%
CCOc1cccc2sc(Nc3nc4ccc(S(C)(=O)=O)cc4s3)nc12	47%
Cc1cc(C)cc(OC(=O)CS(=O)c2ccc(C(F)(F)F)cc2[N+](=O)[O-])c1 (stereo not drawn)	7%
COc1cccc(-c2nnc(NC(=O)COc3ccc(Cl)cc3)o2)c1	3%
Cc1n[nH]c(=S)n1/N=C/c1c(O)ccc2ccccc12	16%
O=C(Nc1nnc(-c2ccccc2)o1)c1cccc(F)c1	85%
COc1ccc(-n2ccnc(SCC(=O)Nc3ccc(Cl)cc3F)c2=O)cc1	-10%
O=C(CSc1nc2c(oc3ccccc32)c(=O)n1Cc1ccco1)Nc1ccccc1	-15%
